From PubChem BioAssay
HIV TAR-Tat: HIV-1 TAR-Tat binding disruption; z-score (concentration not given with the values); HIV-1 TAR RNA, Tat peptide displacement FRET; active compounds read high; hit rate 0.6% among 100,000; AID 1259389;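 also: score is relative to mean and SD of negative controls; some compounds called inactive have numbers as strong as hits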
CDC25B-CDK2 inh: human CDC25B-CDK2/CyclinA binding inhibition; hit rate 0.72% among 94,000; z-score (test concentration not listed); P30305+P24941; HTRF CDC25B-CDK2/CyclinA binding, anti-His/anti-Flag; active compounds read high;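 also: score is relative to mean and SD of negative controls; strong numbers were not always called active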
Numbers without * were called inactive.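 The calls were made as follows: active = z-score from 3 up in half or more of its runs; inactive = the rest.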

Screening COc1cc2ncc(C(=O)c3ccccc3)c(S(=O)(=O)c3ccc(F)cc3)c2cc1OC returned HIV TAR-Tat 0.23 and CDC25B-CDK2 inh 2.4.
`CCc1c(C)nc(SCc2ccc(C)cc2)c(C#N)c1C` gave HIV TAR-Tat 0.91 and CDC25B-CDK2 inh -1.4.
For CC1CN(C)C(C)c2c1oc1ccc(N)cc21 (configuration not stated) the results were CDC25B-CDK2 inh -0.95.
CCCC(CCC)C(=O)Nc1c(C)nc2ccc(Cl)cn2c1=O was read as HIV TAR-Tat 2.4.
`O=C1CCCC(O)=C1C=NCCCn1ccnc1` gave CDC25B-CDK2 inh -1.4.
`Cc1cc(C)c2c(N)c(S(=O)Cc3ccccc3)sc2n1` (configuration not stated) gave CDC25B-CDK2 inh -1.3.
`CCOC(=O)N1CCN(c2c(NCCC3=CCCCC3)c(=O)c2=O)CC1` gave HIV TAR-Tat 0.98.
For Cc1nnc(N2C(=O)C(=O)/C(=C(/O)c3ccccc3)C2c2ccc(C(C)C)cc2)s1 (configuration not stated) the results were CDC25B-CDK2 inh 0.02.
`COc1ccc(OC2CCN(S(=O)(=O)c3ccc(F)cc3)CC2)cc1` gave HIV TAR-Tat -0.63 and CDC25B-CDK2 inh -1.2.
Screening Cc1cc2c(cc1S(=O)(=O)C(C)CC(=O)N(C)C1CCCCC1)OCC(=O)N2 (configuration not stated) returned HIV TAR-Tat 0.46.
CC1(C)CC(=O)C2=C(C1)NC(=O)CC2c1cc2c(cc1Br)OCO2 (configuration not stated) was read as HIV TAR-Tat 1.1 and CDC25B-CDK2 inh -1.2.
`NC(=O)C1=CN(C2OC(COP(=O)(O)OP(=O)(O)OC[C@H]3O[C@@H](n4cnc5c(N)ncnc54)C(OP(=O)(O)O)[C@H]3O)C(O)C2O)C=CC1` (some centres not stated) gave CDC25B-CDK2 inh 1.5.
Screening CCCN(CCC)C(=O)C1CCN(c2nnc(-n3cccc3)s2)CC1 returned HIV TAR-Tat 1.5.
For CC(C)(C)S(=O)(=O)/C(C#N)=C/c1ccsc1 the results were CDC25B-CDK2 inh 0.48.
`CCN(CC)C(=O)Cn1cc(SCC(=O)NC(C)(C)C)c2ccccc21` gave HIV TAR-Tat 0.5.
Screening Cc1nn2c(=O)cc(CSc3nc4ccccc4s3)nc2s1 returned HIV TAR-Tat 0.79 and CDC25B-CDK2 inh -0.37.
Screening CC1=CCC2C(=O)N(c3ccccc3O)C(=O)C2C1 (configuration not stated) returned HIV TAR-Tat -0.96 and CDC25B-CDK2 inh -0.45.
Screening O=S1(=O)CCC(NS(=O)(=O)c2ccc3c(c2)CCO3)C1 (configuration not stated) returned CDC25B-CDK2 inh -0.81.
For O=C(Nc1ccccn1)C1OCCc2ccccc21 (configuration not stated) the results were HIV TAR-Tat 1.8 and CDC25B-CDK2 inh -0.51.
Cc1ccc(CNC(=O)C2CCCN(c3nnc(N4CCCC4=O)s3)C2)o1 (configuration not stated) was read as HIV TAR-Tat -0.65.
CCOc1ccc(S(=O)(=O)Nc2ccccn2)c(C)c1C was read as HIV TAR-Tat 0.71 and CDC25B-CDK2 inh 1.
`CCOCCCNc1ncnc2sc(C)c(C)c12` gave HIV TAR-Tat 1.9 and CDC25B-CDK2 inh -1.2.
For O=C(O)c1cn(CCOc2ccc(Cl)cc2)c2ccccc12 the results were HIV TAR-Tat -1.5 and CDC25B-CDK2 inh -0.04.
For O=C(CCn1c(=O)oc2ccccc21)NNC(=O)c1ccc(Cl)cc1 the results were CDC25B-CDK2 inh -1.5.
Screening CCc1ccc(-n2nnnc2/C(=C/N(C)C)C(C)=O)cc1 returned CDC25B-CDK2 inh -0.54.
`CCCN1CCN(c2ncc3c(n2)CCNC3)CC1` gave HIV TAR-Tat -0.81 and CDC25B-CDK2 inh -0.17.
`CSC(=NCc1cccnc1)NC#N` gave CDC25B-CDK2 inh -1.9.
CCN(CC)CCN1C(=O)c2ccc(-c3ccco3)n2CC1(C)C(=O)NC1CCC(C)CC1 (configuration not stated) was read as HIV TAR-Tat 2.1.
Cc1ccc2nc(Cc3ccc(N)cc3)oc2c1 was read as HIV TAR-Tat 1.9 and CDC25B-CDK2 inh 0.02.
`CCC1Sc2ccc(S(=O)(=O)Nc3cccc(F)c3)cc2NC1=O` (configuration not stated) gave HIV TAR-Tat 0.55.
Cc1nn(C)c(C)c1CN(C)C(=O)c1cc2n(n1)C(C(F)(F)F)CC(c1ccc3c(c1)OCO3)N2 (configuration not stated) was read as HIV TAR-Tat -0.32 and CDC25B-CDK2 inh -1.7.
`O=C(Nc1ccccc1SCCS(=O)(=O)c1ccc(Cl)cc1)c1ccccc1Cl` gave CDC25B-CDK2 inh -1.7.
`Cc1c(C(=O)NCC2CCCO2)oc2ccc3c(c12)C(=O)CC(C)(c1ccc(Cl)cc1)O3` (configuration not stated) gave HIV TAR-Tat 0.98 and CDC25B-CDK2 inh -1.8.
`CC(=O)N1c2ccc(S(=O)(=O)NCC3CCC(C(=O)NCCC(C)C)CC3)cc2CC1C` (configuration not stated) gave HIV TAR-Tat -0.75.
`O=C(CN1C(=O)c2cccnc2Oc2ccccc21)NC1CCCC1` gave HIV TAR-Tat 0.99.
Screening Cc1ccc(-c2noc3ncnc(NCc4ccc(F)cc4)c23)cc1 returned HIV TAR-Tat 0.62.
Screening Cc1ccc(S(=O)(=O)NCc2cccn2Cc2cc(C)ccc2C)c(C)c1 returned HIV TAR-Tat 0.57.
Screening COc1cc(OC)cc(N2C(=O)CC(Sc3ccc(Cl)cc3)C2=O)c1 (configuration not stated) returned HIV TAR-Tat -1 and CDC25B-CDK2 inh -0.47.
For Clc1cc2c(c3ncccc13)OCN(Cc1ccco1)C2 the results were CDC25B-CDK2 inh 0.14.
For O=C(COC(=O)c1ccco1)c1ccc(Cl)cc1 the results were CDC25B-CDK2 inh -0.66.
`CCOC(=O)CNC(=O)N1CCOc2ccc(Cl)cc21` gave HIV TAR-Tat 1.4.
For Cc1cc(S(=O)(=O)Cc2ccc(NC(=O)C(Cl)(Cl)Cl)cc2)c(C)cc1Cl the results were CDC25B-CDK2 inh -0.92.
`COc1ccccc1OCCSc1nc2ccccc2o1` gave CDC25B-CDK2 inh 1.3.
`CCOC(=O)c1c(NC(=O)c2nc(SCC)ncc2Cl)sc(C)c1C` gave HIV TAR-Tat 0.62 and CDC25B-CDK2 inh -1.7.
Screening CC(OC(=O)c1cccc(Cl)c1)c1ccc[n+](C)c1 (configuration not stated) returned CDC25B-CDK2 inh -1.

Twelve compounds already listed, sorted by molecular weight, falling.
Cc1nn(C)c(C)c1CN(C)C(=O)c1cc2n(n1)C(C(F)(F)F)CC(c1ccc3c(c1)OCO3)N2 (configuration not stated) was read as HIV TAR-Tat -0.32 and CDC25B-CDK2 inh -1.7.
`O=C(Nc1ccccc1SCCS(=O)(=O)c1ccc(Cl)cc1)c1ccccc1Cl` gave CDC25B-CDK2 inh -1.7.
`CC(=O)N1c2ccc(S(=O)(=O)NCC3CCC(C(=O)NCCC(C)C)CC3)cc2CC1C` (configuration not stated) gave HIV TAR-Tat -0.75.
For Cc1cc(S(=O)(=O)Cc2ccc(NC(=O)C(Cl)(Cl)Cl)cc2)c(C)cc1Cl the results were CDC25B-CDK2 inh -0.92.
`Cc1c(C(=O)NCC2CCCO2)oc2ccc3c(c12)C(=O)CC(C)(c1ccc(Cl)cc1)O3` (configuration not stated) gave HIV TAR-Tat 0.98 and CDC25B-CDK2 inh -1.8.
`CCOC(=O)c1c(NC(=O)c2nc(SCC)ncc2Cl)sc(C)c1C` gave HIV TAR-Tat 0.62 and CDC25B-CDK2 inh -1.7.
Screening COc1cc(OC)cc(N2C(=O)CC(Sc3ccc(Cl)cc3)C2=O)c1 (configuration not stated) returned HIV TAR-Tat -1 and CDC25B-CDK2 inh -0.47.
`O=C(CN1C(=O)c2cccnc2Oc2ccccc21)NC1CCCC1` gave HIV TAR-Tat 0.99.
For Clc1cc2c(c3ncccc13)OCN(Cc1ccco1)C2 the results were CDC25B-CDK2 inh 0.14.
`CCOC(=O)CNC(=O)N1CCOc2ccc(Cl)cc21` gave HIV TAR-Tat 1.4.
Screening CC(OC(=O)c1cccc(Cl)c1)c1ccc[n+](C)c1 (configuration not stated) returned CDC25B-CDK2 inh -1.
For O=C(COC(=O)c1ccco1)c1ccc(Cl)cc1 the results were CDC25B-CDK2 inh -0.66.

Next results.
For Cn1cc([N+](=O)[O-])cc1C(=O)NC1CCCCC1 the results were HIV TAR-Tat 0.8.
O=C(CSc1nc2ccccc2o1)NCCSCc1ccco1 was read as CDC25B-CDK2 inh -2.8.
For COc1cccc2c1Oc1[nH]c(-c3ccc(O)cc3)nc(=S)c1C2 the results were HIV TAR-Tat -0.64 and CDC25B-CDK2 inh 0.26.
Cn1ncc2c(Nc3cccc(Cl)c3)nc(NC3CCCCC3)nc21 was read as HIV TAR-Tat 1.4.
`CN(C(=O)c1noc2c1CSc1ccccc1-2)c1ccccc1` gave HIV TAR-Tat 1.6 and CDC25B-CDK2 inh -0.67.
For Cc1c(C(=O)N2CCOCC2)oc2ccc(S(=O)(=O)N3CCC4(CC3)OCCO4)cc12 the results were CDC25B-CDK2 inh -1.1.
Screening CC1(C)CC(=O)C2=C(C1)Nc1nonc1NC2c1ccc2c(c1)OCO2 (configuration not stated) returned HIV TAR-Tat 1.2 and CDC25B-CDK2 inh -0.6.
Screening CCc1cc2c(cc3c(=O)n(CCCC(=O)N4CCC(C)CC4)nc(CC)n32)s1 returned HIV TAR-Tat -0.1 and CDC25B-CDK2 inh 0.86.
C#CCNC(=O)C1CCN(c2cnccn2)CC1 was read as HIV TAR-Tat 2.4 and CDC25B-CDK2 inh -1.4.
C=CCN1C(=O)C2(/C(=C(/O)c3ccc(C)c(F)c3)C(=O)C(=O)N2CC2CCCO2)c2ccccc21 (configuration not stated) was read as HIV TAR-Tat -0.77 and CDC25B-CDK2 inh 0.77.
Screening Cc1cc(N2CCN(Cc3ccccc3)CC2)n2nc(C)c(-c3ccc(F)cc3)c2n1 returned HIV TAR-Tat -0.69 and CDC25B-CDK2 inh -1.8.
`Cc1ccc(CN(Cc2ccco2)C(=O)C(C)Oc2cc(C)c(Cl)c(C)c2)o1` (configuration not stated) gave HIV TAR-Tat 0.96 and CDC25B-CDK2 inh 0.41.
CC1CCCC(C)N1S(=O)(=O)c1ccc(S(=O)(=O)N2CCN(c3ncccn3)CC2)cc1 (configuration not stated) was read as HIV TAR-Tat -0.21 and CDC25B-CDK2 inh -2.
Screening CCOC(=O)C(C)Sc1nc(-c2ccc(C)cc2)c(C#N)c(=O)[nH]1 (configuration not stated) returned HIV TAR-Tat 0.85 and CDC25B-CDK2 inh 1.2.
Screening Cc1cc(=O)oc2c1ccc1oc(C(=O)c3ccccc3)c(C)c12 returned CDC25B-CDK2 inh 1.1.
COc1ccc(-c2nnc3c4ccccc4c(C)nn23)cc1S(=O)(=O)NCCO was read as HIV TAR-Tat 0.52 and CDC25B-CDK2 inh -1.9.
Screening CCC1CCCCN1C(=O)c1sc2ncn(CC(=O)N3CC(C)CC(C)C3)c(=O)c2c1C (configuration not stated) returned CDC25B-CDK2 inh -2.5.
For O=C(NCC1COc2ccccc2O1)c1coc(=O)c2ccccc12 (configuration not stated) the results were CDC25B-CDK2 inh -0.48.
O=C(NC1CC1)c1cnn2c3c(cnc12)CCCCC3 was read as HIV TAR-Tat 0.96.
Screening O=C1O[C@@H]2C[C@H]3C[C@@H]2[C@@H]1[C@H]3C(=O)N1CCCc2ccccc21 returned HIV TAR-Tat -0.47 and CDC25B-CDK2 inh -2.6.
CC(=O)N1CC(C)Sc2ccc(S(=O)(=O)NC3CCCCC3C)cc21 (configuration not stated) was read as HIV TAR-Tat 1.6.
`COC(=O)C1CN(Cc2ccccc2)CCC1=O` (configuration not stated) gave CDC25B-CDK2 inh -0.64.
`COc1ccccc1-c1cc(C(F)F)n2ncc(C(=O)N3CCCC3c3ccco3)c2n1` (configuration not stated) gave HIV TAR-Tat 0.24 and CDC25B-CDK2 inh -0.55.
Screening CCN1CCN(c2nnc(-n3cccc3CNc3cccc(Cl)c3)s2)CC1 returned HIV TAR-Tat 2.7.
COc1ccccc1CNc1nc2cc(OC)c(OC)cc2c2nc(-c3cccnc3)nn12 was read as HIV TAR-Tat -0.64 and CDC25B-CDK2 inh -0.68.
O=C(Nc1ncccn1)c1cccs1 was read as HIV TAR-Tat 1.4 and CDC25B-CDK2 inh -0.65.
`Cc1ccc(Nc2ncnc3c2cnn3-c2ccc(F)cc2)cc1C` gave HIV TAR-Tat 1.7.
`CCOC(=O)C1=C(C)NC2=C(C(=O)C(C(=O)OC)C(C)C2)C1c1ccc(Cl)cc1` (configuration not stated) gave HIV TAR-Tat 1.2 and CDC25B-CDK2 inh -0.23.
Cc1ccc(C2=NS(=O)(=O)N(C)C(C(=O)N3C(C)CCCC3C)=C2)cc1 (configuration not stated) was read as HIV TAR-Tat 1.4 and CDC25B-CDK2 inh -0.63.
For c1ccn(-c2nnc(N3CCOCC3)s2)c1 the results were HIV TAR-Tat 0.17 and CDC25B-CDK2 inh -2.4.
`CCc1cc(Nc2ccc(C)cc2C)n2ncnc2n1` gave HIV TAR-Tat 0.18 and CDC25B-CDK2 inh -2.7.
`CCOc1ccc(C(=O)c2cn(Cc3ccc(OC)cc3)c3cc4c(cc3c2=O)OCCO4)cc1` gave HIV TAR-Tat 0.54 and CDC25B-CDK2 inh -0.18.
`Cc1cc(C)c2c(CC(=O)Nc3nnc(C)s3)coc2c1` gave HIV TAR-Tat 0.6 and CDC25B-CDK2 inh -1.1.
For CCC(C)(C)NC(=O)C1CCCN(S(=O)(=O)c2ccc3c(c2)CC(C)N3C(=O)C2CC2)C1 (configuration not stated) the results were HIV TAR-Tat 0.17.
`C=CCOc1ccc(C2CC(=O)Nc3c2cnn3-c2nc3ccccc3s2)cc1` (configuration not stated) gave HIV TAR-Tat 1.6.

Hits appear at their usual frequency; any-hit rate near 0.9%.
